# MLL AF4-AF9 inh: MLL-AF4/AF9 protein interaction inhibition. AlphaScreen, biotin-AF4 peptide binding to FLAG-AF9. inhibition, % at 10 µM. hit rate 0.47% among 350,000;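 active = every replicate reaching a set inhibition limit, whatever the replicate mean, cut at about 25% in these data; inconclusive = mean inhibition reaches that limit but some replicates miss it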;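 note: 0% = plate neutral control median and 100% = total signal loss; the record names both 10 and 1 µM as test concentration; the first replicate is given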
# Target sequence (P42568 whole entry, looked up): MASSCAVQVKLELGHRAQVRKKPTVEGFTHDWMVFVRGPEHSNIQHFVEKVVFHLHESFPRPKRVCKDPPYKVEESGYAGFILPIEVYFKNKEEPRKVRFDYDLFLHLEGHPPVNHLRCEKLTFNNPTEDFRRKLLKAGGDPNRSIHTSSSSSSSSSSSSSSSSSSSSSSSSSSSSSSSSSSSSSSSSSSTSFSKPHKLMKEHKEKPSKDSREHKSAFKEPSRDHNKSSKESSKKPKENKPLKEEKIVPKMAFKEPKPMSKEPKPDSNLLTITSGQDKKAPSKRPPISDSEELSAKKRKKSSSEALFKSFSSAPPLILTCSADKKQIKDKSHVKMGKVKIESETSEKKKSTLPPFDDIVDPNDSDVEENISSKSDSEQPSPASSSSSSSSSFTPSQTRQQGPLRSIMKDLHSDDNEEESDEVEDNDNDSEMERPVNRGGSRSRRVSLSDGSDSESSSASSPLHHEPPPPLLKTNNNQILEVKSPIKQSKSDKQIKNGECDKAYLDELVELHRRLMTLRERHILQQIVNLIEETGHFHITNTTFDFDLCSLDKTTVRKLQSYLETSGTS
# T cruzi inh: blocks replication of Trypanosoma cruzi. T. cruzi beta-gal in NIH3T3, luminescence, 90 h. inhibition, % (no concentration beside the values). hit rate 1.4% among 300,000;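 active = mean inhibition across valid replicates above about 55%, limit read from the data; inconclusive = mean below that limit but half or more replicates reach it; inactive = mean below it, under half of replicates reach it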;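 note: signal also drops with host cell toxicity which is not excluded here; 0% = plate median of DMSO wells and 100% = zero luminescence signal; higher percent means less beta-gal luminescence so fewer parasites; stock transfer was 50 nL into about 50 µL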
# Beta cell apopt: beta cell apoptosis inhibition; INS-1E cytokine-induced death, ATP luminescence, 48 h; percent of positive-control rescue, neutral wells zero; protection from apoptosis, % (test concentration not listed); hit rate 0.8% among 300,000;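 active = all replicates at 75% or more, or half of them and the mean; inconclusive = half reach 75% but not the mean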;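 note: 0% = cytokine-treated negative control wells and 100% = positive control rescue; higher means more ATP so stronger rescue from cytokine killing; wells of about 40 µL received 100 nL stock; the first replicate is given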
# Calb FLC: C. albicans growth modulation with fluconazole | C. albicans CaCi-2 (fluconazole-resistant clinical isolate) + fluconazole, Alamar Blue growth, 48 h | growth inhibition, % (no concentration beside the values) | hit rate 0.57% among 300,000 | AID 1979;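 active = most replicates above 75%; inconclusive = exactly half above 75%; inactive = most below 75%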;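 note: all wells also contain fluconazole at 8 µg/ml as a sub-toxic cotreatment; 0% = median of DMSO wells and 100% = median of geldanamycin control wells; wells of about 8 µL received 7.5 nL stock; the first replicate is given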
# ALR inh: human ALR oxidase inhibition via reduced H2O2 | hit rate 3.8% among 290,000 | purified ALR, DTT oxidation, H2O2 HRP-luminol luminescence | inhibition, % (test concentration not listed) | P55789;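 active = mean and each replicate at 75% or more; inconclusive = only one of the two met; inactive = neither met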;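 note: stock transfer was 7.5 nL into about 7.5 µL; 0% = neutral wells and 100% = wells with inactivated enzyme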
# Target sequence (P55789 whole entry, looked up): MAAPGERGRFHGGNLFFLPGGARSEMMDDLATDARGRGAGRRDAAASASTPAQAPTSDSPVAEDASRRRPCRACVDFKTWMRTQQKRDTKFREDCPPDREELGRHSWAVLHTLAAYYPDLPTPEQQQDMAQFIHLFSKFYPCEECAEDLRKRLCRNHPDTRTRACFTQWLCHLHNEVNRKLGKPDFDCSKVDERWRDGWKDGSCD
# FGF22 binding: FGF22 (human) thermal shift binding; Q9HCT0; hit rate 1.5% among 340,000; recombinant FGF22 thermal shift, SYPRO orange fluorescence; percent of sucrose octasulfate shift, DMSO zero; calls only at 9.99 µM;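 active = melting point raised past a set limit in the mean and every replicate; inconclusive = no clear call; three in four hits are not shown here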
# Target sequence (Q9HCT0 whole entry, looked up): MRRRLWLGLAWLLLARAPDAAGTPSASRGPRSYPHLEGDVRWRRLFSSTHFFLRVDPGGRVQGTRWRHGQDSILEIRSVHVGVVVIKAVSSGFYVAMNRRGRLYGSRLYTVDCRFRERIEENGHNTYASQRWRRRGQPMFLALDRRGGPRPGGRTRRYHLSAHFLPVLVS
# RanGTP-Impb inh: inhibitors of RanGTP-importin-beta interaction, primary screen, biochemical, FRET, CFP-Ran, YFP-importin-beta, homogeneous; inhibition, % (test concentration not listed); cell-free CFP-Ran/YFP-importin-beta FRET ratio; hit rate 1.1% among 300,000; AID 2216;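 active = most replicates above 15%; inconclusive = exactly half above 15%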;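 note: 0% = DMSO wells and 100% = Ran loaded with GDP instead of GTP; wells of about 40 µL received 100 nL stock; the first replicate is given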
# Ecoli rRNA inh: inhibitors of bacterial rRNA selective over humanized ribosomes. E. coli WT GFP vs humanized-ribosome RFP mutants, fluorescence, 24 h; hits give low values; DMSO median 0, no signal -100. GFP signal change (wild-type ribosome), % (no concentration beside the values). hit rate 1.6% among 350,000. AID 720706;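 active = significant combined selectivity score with lowered wild-type GFP, culture density cut under 30%, mutant RFP and density less affected; inactive = any of these conditions unmet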; note: one replicate is shown; some compounds called inactive have numbers as strong as hits
# Ecoli rRNA inh OD600: further read-out of Ecoli rRNA inh, marked with its call; OD600 change, %; measured here: OD600 growth;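 optical density of the mix in the first replicate; 0 = DMSO median and -100 = no signal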
# Ecoli rRNA inh RFP: recorded beside Ecoli rRNA inh, whose call it bears; RFP signal change, %; measured here: RFP humanized mutant strains;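 first replicate; 0 = DMSO median and -100 = no signal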
# An asterisk follows results filed as active; i = inactive; ? = inconclusive; · = not tested or not shown. An excerpt (hit frequency here may not be typical).
SMILES,MLL AF4-AF9 inh,T cruzi inh,Beta cell apopt,Calb FLC,ALR inh,FGF22 binding,RanGTP-Impb inh,Ecoli rRNA inh,Ecoli rRNA inh OD600,Ecoli rRNA inh RFP
COc1ccc(C2/C=C\CN(S(=O)(=O)c3cccc4cccnc34)CC(=O)N2Cc2ccc(F)cc2)cc1 (centres undefined),-2.1,17,-1,-2,·,i,-0.2,4,0,-0.2
CC(O)[C@H]1CNCCN1CCc1cccc2ccccc12 (some centres undefined),4.3,-18,-10,-9,-16,i,3.7,9,13,13
NC(Cc1ccc(O)cc1)c1cn([C@@H](CCC(=O)O)C(=O)N2CCNCC2)nn1 (some centres undefined),·,-17,-6,5,-29,i,0.2,5,4,2.9
CCOc1ccc(NS(=O)(=O)c2ccc(C)c(C(N)=O)c2)cc1,2.1,-7,4,-1,-7,i,6.2,2,8,0.3
c1ccc(-c2noc(CN3CCOCC3)n2)cc1,0.6,-22,-10,38,-6,i,1.2,23,25,0.9
Cc1ccc(OCc2n[nH]c(=S)n2C2CCCCC2)cc1,-5.4,3,5,-10,-1,i,4.7,-16,-13,-3.0
CCOC(=O)C1CCCN(C(=O)CN2C(=O)/C(=C/c3ccc(OC)cc3)Oc3ccccc32)C1 (centres undefined),1.1,17,2,-5,-15,i,4.4,5,-1,-3.9
Cc1nnc(NC(=O)CSC2=NN3CCCC(=O)N=C3S2)s1,-0.9,2,-2,16,-6,i,2.4,15,16,0.1
CCOC(=O)C1CCN(c2ncnc3nc[nH]c23)CC1,-3.5,7,0,-15,1,i,-0.8,-7,-1,0.9
[O-]/[N+](=C/c1ccc(F)cc1)c1ccccc1,·,-18,1,-2,-1,·,-4.7,·,·,·
Brc1ccc2c(c1)[C@H]1OCC[C@H]1[C@@H](c1cccs1)N2,2.2,-2,0,1,30,i,0.8,-44*,-31*,-12*
COCC(=O)N1CCC(Oc2ccc(C(=O)NC3Cc4ccccc4C3)cc2)CC1,1.2,-15,4,-3,-16,i,5.5,4,3,-0.1
O=C(Nc1ccc2c(c1)OCO2)Nc1cnccn1,·,-23,4,-5,-7,·,?,·,·,·
COc1ccccc1N1CCN(c2ccc([N+](=O)[O-])cc2Cl)CC1,·,-37,·,-7,6,·,6.1,·,·,·
CCC(CC)C(=O)Nc1ccc(-c2cn3cccnc3n2)cc1,-1.1,-3,·,5,-1,i,-0.8,7,12,0.0
CCOc1ccc(C(=O)CCC(=O)NC(CC(C)C)C(=O)OC)cc1 (centres undefined),0.0,-18,2,-10,·,i,5.2,12,20,3.5
CCCCC(=O)Nc1ncc(Br)s1,-8.6,6,0,-15,-1,i,-2.2,8,1,-3.5
O=C(CCc1nc2ccccc2n1-c1ccccc1)NCCO,1.5,-11,-4,-7,-9,i,-1.1,6,6,-3.1
Cc1ccccc1C(=O)NC1CCN(CC(=O)Nc2c(C)cccc2C)CC1,·,-7,-2,-11,-3,·,-5.0,·,·,·
CC(C)CCNC(=O)NC(=O)CSc1ccc(S(=O)(=O)N2CCOCC2)cn1,?,·,5,·,4,i,·,6,14,2.2
CCN(C(=O)CSC1=Nc2ccccc2C2CC=NN12)C1CCS(=O)(=O)C1 (centres undefined),-1.5,-2,0,2,-4,i,-2.1,-2,-5,-3.7
CCn1c(=NC(=O)c2ccco2)sc2cccc(F)c21,-6.6,-1,-8,3,25,i,-1.6,-10,-49,-2.7
COc1ccc(N2C(=NC(=O)C3CCCO3)SC3CS(=O)(=O)CC32)cc1 (centres undefined),-0.9,9,·,2,0,i,-1.2,7,13,3.0
CNC1(c2nnnn2-c2ccccc2C)CCOC(C)(C)C1 (centres undefined),-6.3,-2,8,-4,·,i,2.3,7,5,-0.6
Nc1c(C(O)(C(F)(F)F)C(F)(F)F)ccc2ccccc12,·,2,·,13,·,·,1.7,-5,-8,-0.6

# Going on with the list.
SMILES,MLL AF4-AF9 inh,T cruzi inh,Beta cell apopt,Calb FLC,ALR inh,FGF22 binding,RanGTP-Impb inh,Ecoli rRNA inh,Ecoli rRNA inh OD600,Ecoli rRNA inh RFP
COc1ccccc1CNC(=O)c1cc(-c2ccccc2)nn1CC1CC(c2cccc([N+](=O)[O-])c2)=NO1 (centres undefined),·,40,7,12,-4,i,4.5,11,13,-0.6
COc1ccc2c(c1)OC[C@H]1[C@H]2N2C(=O)CN(CCc3c[nH]c4ccccc34)C(=O)[C@@]2(C)[C@H]1c1ccccc1,8.3,·,-1,·,-1,i,·,1,-5,-0.5
Cc1ccc(C(=O)Cn2c3[n+](c4ccccc42)CC(O)CS3)cc1 (centres undefined),-5.8,-3,-2,-7,·,i,-1.9,0,8,-0.8
CS(=O)(=O)NCCNc1ncc(C(F)(F)F)cc1Cl,-0.1,12,·,-4,-10,i,?,4,7,-2.2
Cc1[nH]nc2c1C(c1ccc(F)cc1)C(C#N)=C(N)O2 (centres undefined),·,-24,-25,-11,2,·,3.6,·,·,·
COc1ccc(S(=O)(=O)N(C)c2ccc(C(=O)NCC3CCCO3)cc2)cc1 (centres undefined),·,-8,3,36,-5,·,-0.2,·,·,·
CCC(C)NC(=O)c1ccc(CSCc2ccccc2Cl)o1 (centres undefined),4.5,0,0,0,36,i,1.7,-15,-35,-7.9
CCOC(=O)c1c(NC(=O)CN2C(=O)NC3(CCC(C)CC3)C2=O)sc(C)c1CC (centres undefined),-1.0,2,·,-6,-6,i,-2.6,9,12,1.9
CCC(C)C(=O)Nc1nc2ccc(S(C)(=O)=O)cc2s1 (centres undefined),-2.0,4,·,7,-6,i,3.1,6,13,-1.3
CCOC(=O)C1(Cc2ccccc2C(F)(F)F)CCN(C(=O)c2cc(C(C)=O)n[nH]2)CC1,2.3,9,-2,-10,-14,i,0.9,-20,-24,-1.4
COCCOC(=O)c1c(C)oc2ccc(OCC=C(C)C)cc12,·,14,-3,-8,-1,·,?,·,·,·
O=C(Cn1nc2n(c1=O)-c1ccccc1SC2)N/N=C/c1cccs1,·,-12,1,-5,3,i,2.5,0,2,-0.8
CCC(CC)c1nnc(NC(=O)Cc2cccs2)s1,0.1,-1,-4,0,-1,i,?,-10,-8,2.4
C=C(C)CSc1nnc(-c2ccc(OC)c(OC)c2)n1N,·,-8,-3,31,-4,·,2.3,·,·,·
O=C(O)CNC(=O)c1ccccc1F,·,-20,0,4,-2,·,?,·,·,·
Cc1ccc(C)c(N(C(=O)c2nsc(Cl)c2Cl)C(C(=O)NC2CCCC2)c2ccc(O)cc2)c1 (centres undefined),·,12,0,-1,0,·,2.5,·,·,·
CC(C)C(NC(=O)c1ccccc1)C(=O)N1CCN(C/C=C/c2ccccc2)CC1 (centres undefined),1.9,·,3,·,·,i,·,-7,-3,0.1
CCOCCC(=O)Nc1nnc(CCc2ccccc2)s1,2.8,7,·,-8,-9,i,1.4,4,3,-0.5
COC(=O)CN(c1ccccc1)S(=O)(=O)c1ccc(F)cc1,·,6,-4,-2,-2,·,-3.6,·,·,·
C(=C\c1cccc2ccccc12)/c1nnc(-c2cccs2)o1,·,35,12,5,-10,·,14,·,·,·
O=c1c2nnn(Cc3ccccc3)c2ncn1-c1ccccc1,·,1,-2,-5,-10,·,-1.3,·,·,·
O=C(OCC(=O)N1CCCC1=O)c1cc(S(=O)(=O)N2CCOCC2)ccc1Cl,2.0,-8,-9,-1,-2,i,1.7,4,2,-0.7
CSc1ccccc1NC(=O)CN(C)C(C)C(=O)NCc1ccc2c(c1)OCO2 (centres undefined),3.1,·,0,·,-5,i,·,8,8,-2.2
Cc1nn2c(COc3ccc(NC(=O)C(C)C)cc3)nnc2c2ccccc12,-3.8,14,-3,-8,12,i,-1.4,11,8,0.8
CCOc1cccc(OCCCCN2CCCCC2)c1,·,10,-30,-32,-6,·,-4.3,·,·,·

# Single entries from the entries so far:
# COc1ccc2c(c1)OC[C@H]1[C@H]2N2C(=O)CN(CCc3c[nH]c4ccccc34)C(=O)[C@@]2(C)[C@H]1c1ccccc1 @ Ecoli rRNA inh: 1
# NC(Cc1ccc(O)cc1)c1cn([C@@H](CCC(=O)O)C(=O)N2CCNCC2)nn1 (some centres undefined) @ Beta cell apopt: -6

# Remaining list, next part:
SMILES,MLL AF4-AF9 inh,T cruzi inh,Beta cell apopt,Calb FLC,ALR inh,FGF22 binding,RanGTP-Impb inh,Ecoli rRNA inh,Ecoli rRNA inh OD600,Ecoli rRNA inh RFP
Cc1ccc(NC(=O)c2cccc(S(=O)(=O)N3CCCCC3)c2)cc1,1.1,-10,0,-3,-16,i,-2.7,-6,-18,1.1
Cc1cc(C)n(-c2ccc(C(=O)N3CCc4ccccc43)cc2)n1,·,-18,6,43,·,·,-0.8,·,·,·
CSc1ccccc1NC(=O)CN(C)CC(=O)Nc1ccc(Cl)cc1F,-5.4,-2,-8,5,-14,i,2.9,-30,-47,-4.6
CC(=O)N1CCN(S(=O)(=O)c2cccc(C(=O)NNC(=O)Cn3ccc(C(F)(F)F)n3)c2)CC1,1.2,-13,-7,8,-7,i,0.4,4,3,-3.7
COc1ccc(-c2nnc(SCC(=O)NCc3ccco3)o2)cc1,·,-13,-3,14,-1,·,?,3,8,-2.6
CCCCN1C(=O)/C(=C2\SC(N3CCCCC3)=NC2=O)c2ccccc21,·,44,80*,-9,-3,·,2.8,·,·,·
Cc1ccc(S(=O)(=O)N(C)C)cc1NC(=O)COC(=O)Cc1ccccc1F,0.4,-18,4,-11,-18,i,-1.7,9,1,-0.7
NC(=O)CCn1cnc2ccccc21,-0.4,-7,2,-3,-5,i,-0.7,15,5,-1.8
Cc1cc(NC(=O)COC(=O)c2c(C)c(C)c(C)c(C)c2C)no1,0.1,·,1,·,10,i,·,·,·,·
Cc1cccc(NC(=O)c2ccc(C(=O)Nc3cccc(C)c3)nc2)c1,·,-30,1,-6,0,·,-2.5,·,·,·
CCOC(=O)N1CCN(S(=O)(=O)c2ccc(C)cc2)C1c1ccccc1 (centres undefined),·,-11,-2,0,-5,·,0.6,·,·,·
COC(=O)c1ccccc1NC(=O)COC(=O)c1ccccc1N=Nc1ccc(N(C)C)cc1,·,3,-5,-7,3,·,-2.5,·,·,·
CCOC(=O)C1(CCOc2ccccc2)CCN(C(=O)CCSC)CC1,2.4,-6,-2,2,·,i,1.2,-2,9,-2.3
CC(SCc1ccccc1)C(=O)NN=C1CCN(C)CC1 (centres undefined),-40,2,1,-9,2,i,-2.3,25,8,5.0
Cc1cccc(NC(=O)C2CCCN(S(=O)(=O)c3ccc4[nH]c(=O)ccc4c3)C2)n1 (centres undefined),0.7,-20,9,62,-4,i,-2.8,-5,-18,-6.9
O=C(NC12CC3CC(CC(C3)C1)C2)c1ccc(-c2cccc(Cl)c2)o1,·,44,16,-5,-2,·,-7.7,·,·,·
COc1ccc2cc(C3(C)NC(=O)N(CC(=O)NCc4ccco4)C3=O)ccc2c1 (centres undefined),·,2,1,-3,-13,·,2.0,·,·,·
COCCNC(=O)c1c(CSc2ccccc2)noc1C(=O)NCc1ccccc1,-1.9,-3,-1,-3,3,i,0.0,-15,-20,-0.6
CCCC12CN3CCN(CC(C3)/C1=N\NC(=O)c1ccc(F)cc1)C2,-1.8,3,3,3,-8,·,0.1,14,12,0.1
CCN(CC(=O)NC1CCS(=O)(=O)C1)c1nc(-c2ccccc2)nc2ccccc12 (centres undefined),·,14,2,19,·,·,3.2,·,·,·

# Screens: PubChem BioAssay, Broad Institute
